# YB-1 expr inh: YB-1 expression inhibition. U2OS, qRT-PCR YB-1 vs CDIP delta delta Cp, 16 h; hits give high values; zero = DMSO, each unit about twofold. delta delta Cp (YB-1 minus CDIP) (test concentration not listed). 30,000 compounds, 0.37% hits. AID 434959;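 active means delta delta Cp rounded down to an integer at or above 3, about 3 SD of DMSO wells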;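 further: higher means less YB-1 transcript or more CDIP transcript relative to DMSO; stock transfer was 100 nL into about 100 µL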
# MITF inhib: inhibitors of MITF | inhibition, % (concentration not given with the values) | 37,000 compounds, 0.28% hits | AID 2240 | TRPM1 promoter luciferase, luminescence, 24 h;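 active means most replicates at 85% or more, or half of them and the mean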;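 further: human melanocyte line stably carrying TRPM1 promoter luciferase reporter; 0% = vehicle wells and 100% = a positive control; the first replicate is given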
# Hedgehog inh: blocks Sonic Hedgehog signaling; inhibition, % (test concentration not listed); Shh-LIGHT2 Gli-luciferase reporter, 30 h; 22,000 compounds, 2.1% hits; AID 2313;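 active means replicate mean of 65% or more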;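 further: pathway switched on by Shh-conditioned medium diluted 1 in 25 in low serum; 100 nL library stock added to about 40 µL; 0% = median of neutral wells and 100% = positive control level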
# PD-1 reverse act: reversal of PD-1 mediated T-cell inhibition; activation, % (test concentration not listed); 29,000 tested, under 10 active; primary human CD4 T cells, PD-L1 beads, CellTiter-Glo 96 h;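 active means replicate mean of 50% or more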;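 further: 0% = median vehicle wells and 100% = positive control; 100 nL library stock added to about 50 µL; numbers are from one replicate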
# Active calls of the source: *; · = no result given.
SMILES,YB-1 expr inh,MITF inhib,Hedgehog inh,PD-1 reverse act
COC(=O)c1ccc(C)c(NC(=O)CN2C(=O)c3ccccc3S2(=O)=O)c1,·,-7,·,-0.5
Cc1noc(C)c1NC(=O)N(C)C[C@@H]1Oc2ccc(NC(=O)C3CCCCC3)cc2CC(=O)N([C@H](C)CO)C[C@@H]1C,0.28,10,17,-1.5
COc1ccc(NC(=O)Nc2ccc3c(c2)CC(=O)N([C@H](C)CO)C[C@@H](C)[C@H](CN(C)CC2CC2)O3)cc1,-0.2,-5,-64,0.5
O=C(O)CSc1nnc(-c2ccc(Cl)cc2)n1-c1ccccc1,·,-84,·,2.6
O=C(O)CCNc1cc(Cl)ccc1Oc1ccc(Cl)cc1,0.016,-15,-5,-0.3
CC1=C(C(=O)Nc2ccccc2)C(c2ccco2)n2ncnc2N1 (stereo unspecified),·,6,·,0.6
Cc1noc(C)c1NC(=O)N(C)C[C@H]1Oc2c(NC(=O)CCCCCC(=O)Nc3ccccc3N)cccc2C(=O)N([C@H](C)CO)C[C@@H]1C,-0.17,-11,·,1.3
C[C@@H]1CN([C@@H](C)CO)C(=O)c2cc(NS(C)(=O)=O)ccc2O[C@@H]1CN(C)Cc1ccc(C(=O)Nc2ccccc2N)cc1,-0.035,-24,·,0.0
c1ccc(-n2ncc3c(N4CCc5ccccc54)ncnc32)cc1,0.26,-19,-126,2.8
CSc1nc(-c2cccnc2)nc(-c2ccc(OC(F)(F)F)cc2)c1C#N,-0.31,-14,10,0.1

# Just MITF inhib and YB-1 expr inh, for some of the entries so far:
SMILES	MITF inhib	YB-1 expr inh
COc1ccc(NC(=O)Nc2ccc3c(c2)CC(=O)N([C@H](C)CO)C[C@@H](C)[C@H](CN(C)CC2CC2)O3)cc1	-5	-0.2
O=C(O)CSc1nnc(-c2ccc(Cl)cc2)n1-c1ccccc1	-84	·
O=C(O)CCNc1cc(Cl)ccc1Oc1ccc(Cl)cc1	-15	0.016
CC1=C(C(=O)Nc2ccccc2)C(c2ccco2)n2ncnc2N1 (stereo unspecified)	6	·

# The main list resumes, repeating the two entries before the break.
SMILES,YB-1 expr inh,MITF inhib,Hedgehog inh,PD-1 reverse act
c1ccc(-n2ncc3c(N4CCc5ccccc54)ncnc32)cc1,0.26,-19,-126,2.8
CSc1nc(-c2cccnc2)nc(-c2ccc(OC(F)(F)F)cc2)c1C#N,-0.31,-14,10,0.1
COc1ccc(NC(=O)N(C)C[C@@H]2Oc3ccc(NC(=O)Cn4cnnn4)cc3C(=O)N([C@H](C)CO)C[C@@H]2C)cc1,0.013,8,-22,0.5
C[C@@H]1CN([C@@H](C)CO)C(=O)c2cc(NC(=O)Nc3cccc4ccccc34)ccc2O[C@H]1CN(C)C(=O)Nc1ccc2c(c1)OCO2,-0.2,-6,10,-1.4
C[C@H](CO)N1C[C@H](C)[C@@H](CN(C)Cc2ccc(Cl)c(Cl)c2)Oc2c(NC(=O)c3nc4ccccc4s3)cccc2C1=O,-0.12,24,23,-3.5
C[C@@H]1CN([C@H](C)CO)C(=O)c2cccc(NS(C)(=O)=O)c2O[C@@H]1CN(C)S(=O)(=O)c1ccccc1,0.45,-15,-14,0.7
COc1cc([C@H]2OC[C@H]3[C@@H]2CO[C@@H]3c2ccc3c(c2)OCO3)cc(OC)c1OC,0.34,-3,-10,0.9
C[C@@H]1CCCCO[C@@H](CN(C)Cc2ccc(C(=O)O)cc2)[C@@H](C)CN([C@H](C)CO)C(=O)c2cc(NC(=O)Nc3ccccc3)ccc2O1,0.18,-20,9,-1.4
C[C@@H]1CN([C@H](C)CO)C(=O)c2cc(NC(=O)Nc3ccc4c(c3)OCO4)ccc2O[C@@H]1CN(C)C(=O)Nc1ccc(F)cc1,-0.095,-5,-21,0.8
O=C(O)c1cccc(NC(=O)C2(c3ccccc3)CCN(S(=O)(=O)c3ccccc3)CC2)c1,·,7,·,1.9
C[C@@H]1CN([C@H](C)CO)C(=O)c2cc(NS(=O)(=O)c3cn(C)cn3)ccc2O[C@@H]1CN(C)Cc1ccc(Cl)c(Cl)c1,0.0013,-5,-7,·
Cc1noc(C)c1NC(=O)N(C)C[C@@H]1Oc2ccc(NC(=O)C3CC3)cc2CC(=O)N([C@H](C)CO)C[C@@H]1C,0.056,-1,2,1.6
Cc1cc(OCC(=O)Nc2cc(-c3nc4ncccc4o3)ccc2C)ccc1Cl,·,33,·,-2.0
C[C@@H]1CCCCO[C@@H](CN(C)C(=O)CCC(F)(F)F)[C@@H](C)CN([C@H](C)CO)C(=O)c2cc(NC(=O)Nc3ccccc3)ccc2O1,0.6,-11,-1,·
C[C@@H]1CCCCO[C@@H](CN(C)Cc2ccc3c(c2)OCO3)[C@@H](C)CN([C@H](C)CO)C(=O)c2cc(NC(=O)Nc3cccc4ccccc34)ccc2O1,0.068,-8,24,0.3
CC1OC(OCC2OC(OCC3(C)C(O)CCC4(C)C3CCC3(C)C4CCC4C5=CC(C)(C)CCC5(C(=O)O)CCC43C)C(O)C(O)C2O)C(O)C(O)C1O (stereo unspecified),1.3,-6,-19,-0.5
CC(C)NC(=O)N(C)C[C@H]1Oc2c(cccc2N(C)C)C(=O)N([C@H](C)CO)C[C@H]1C,-0.28,-3,-36,1.9
C[C@@H]1CN([C@H](C)CO)C(=O)Cc2cc(NC(=O)Cc3ccccc3)ccc2O[C@H]1CN(C)C(=O)Nc1ccc(C(F)(F)F)cc1,-0.14,-7,·,0.3
Cc1cc(N(CC(=O)Nc2ccc(F)c(Cl)c2)S(C)(=O)=O)ccc1Br,·,47,·,-7.9
N/N=C(/Cn1nnc(N2CCCCC2)n1)c1ccc(Cl)cc1,-0.39,5,-13,-1.1
C[C@H]1CN([C@@H](C)CO)C(=O)Cc2cc(NS(=O)(=O)c3ccc(F)cc3)ccc2O[C@H]1CN(C)Cc1ccc(Cl)c(Cl)c1,-0.16,-10,51,-0.1
CNC[C@H]1Oc2ccc(NC(=O)Cn3cnnn3)cc2C(=O)N([C@H](C)CO)C[C@H]1C,0.054,-4,·,0.6

# An excerpt from above in order of molar mass, highest first:
SMILES,YB-1 expr inh,MITF inhib,Hedgehog inh,PD-1 reverse act
CC1OC(OCC2OC(OCC3(C)C(O)CCC4(C)C3CCC3(C)C4CCC4C5=CC(C)(C)CCC5(C(=O)O)CCC43C)C(O)C(O)C2O)C(O)C(O)C1O (stereo unspecified),1.3,-6,-19,-0.5
C[C@@H]1CN([C@H](C)CO)C(=O)c2cc(NC(=O)Nc3ccc4c(c3)OCO4)ccc2O[C@@H]1CN(C)C(=O)Nc1ccc(F)cc1,-0.095,-5,-21,0.8
Cc1noc(C)c1NC(=O)N(C)C[C@@H]1Oc2ccc(NC(=O)C3CCCCC3)cc2CC(=O)N([C@H](C)CO)C[C@@H]1C,0.28,10,17,-1.5

# Remaining list, next part.
SMILES,YB-1 expr inh,MITF inhib,Hedgehog inh,PD-1 reverse act
CC(C)NC(=O)N(C)C[C@@H]1Oc2ccc(NC(=O)CCCCCC(=O)Nc3ccccc3N)cc2CC(=O)N([C@@H](C)CO)C[C@@H]1C,0.018,-35,·,-1.5
Cc1noc(C)c1NC(=O)Nc1ccc2c(c1)C(=O)N([C@@H](C)CO)C[C@H](C)[C@@H](CN(C)C(=O)NC1CCCCC1)O2,0.24,-19,-14,0.0
COc1ccc(NC(=O)N(C)C[C@@H]2Oc3ccc(NS(=O)(=O)c4cccs4)cc3C(=O)N([C@H](C)CO)C[C@@H]2C)cc1,-0.046,-19,-18,-1.2
C[C@@H]1CN([C@@H](C)CO)C(=O)c2cc(NC(=O)Cc3ccccc3)ccc2O[C@@H]1CN(C)Cc1ccc(C(=O)Nc2ccccc2N)cc1,-0.39,4,·,-0.2
C=C1[C@H]2CC[C@]3(O)[C@@](CC[C@@H]4[C@](C)(C(=O)O)CCC[C@]43C)(C2)[C@H]1OC(=O)/C(C)=C\C,-0.28,0,3,3.1
COc1ccccc1OCC(O)CN1CCN(CC(=O)Nc2c(C)cccc2C)CC1 (stereo unspecified),-0.29,40,-51,·
C=CCN1C(=O)C(O)(CC(=O)c2ccc(OC)c([N+](=O)[O-])c2)c2ccccc21 (stereo unspecified),·,21,·,-10
Cc1cccc(NC(=O)CSc2nnc3c4ccccc4nc(-c4ccccc4)n23)c1,·,0,·,-2.5
Cc1ccc(NC(=O)C(C)NS(=O)(=O)c2ccc(F)cc2)c(C)c1 (stereo unspecified),·,-9,·,1.5
C[C@H]1CN([C@@H](C)CO)C(=O)c2cccc(NC(=O)Nc3cccc4ccccc34)c2O[C@@H]1CN(C)C(=O)Nc1ccccc1,-0.063,-6,17,-1.4
O=C(CSc1nnc(-c2ccncc2)n1-c1ccc(F)cc1)c1ccccc1,·,-6,·,-1.4
C[C@@H]1CN([C@@H](C)CO)C(=O)c2cc(NC(=O)Cc3ccccc3)ccc2O[C@H]1CN(C)C(=O)Nc1ccc(F)cc1,0.26,-3,-6,-1.3
Cn1cnnc1SCC(=O)N1c2ccccc2Sc2ccc(C(F)(F)F)cc21,·,-13,·,-1.6
C[C@H]1CN([C@@H](C)CO)C(=O)Cc2cc(NC(=O)Nc3ccccc3)ccc2O[C@@H]1CN(C)S(=O)(=O)c1cccs1,-0.6,-15,·,0.0
COc1ccc(CN=C(Nc2ccccc2)SC2CC(=O)NC2=O)cc1 (stereo unspecified),-0.22,-14,-65,-3.2
O=S(=O)(c1ccc2ccccc2c1)N1CCCCC1,-0.36,5,14,-0.2
CCN(CC)C(=O)C1Sc2nnc(-c3ccccc3)n2NC1c1ccc(C)cc1 (stereo unspecified),-0.079,15,-6,-2.2
C[C@H](CO)N1C[C@H](C)[C@H](CN(C)Cc2ccc(Oc3ccccc3)cc2)Oc2c(NC(=O)Nc3ccc4c(c3)OCO4)cccc2C1=O,0.094,3,16,-3.2
CS(=O)(=O)N(CC(=O)Nc1cccnc1)c1cccc(Br)c1,·,-12,·,2.8
C[C@@H]1CCCCO[C@@H](CN(C)C(=O)C2CCCCC2)[C@@H](C)CN([C@H](C)CO)C(=O)c2cc(NS(=O)(=O)c3cccs3)ccc2O1,-0.24,36,-6,·
C[C@@H]1CN([C@@H](C)CO)C(=O)Cc2cc(NC(=O)C3CCCCC3)ccc2O[C@@H]1CN(C)Cc1ccc(C(=O)O)cc1,0.44,-2,-6,-1.9
Cc1noc(C)c1NC(=O)N(C)C[C@@H]1Oc2ccc(NC(=O)Nc3ccc(F)cc3)cc2C(=O)N([C@H](C)CO)C[C@@H]1C,0.21,-10,-24,-0.1
Cc1c(CCC(=O)O)c(=O)oc2c(C)c(OCc3c(F)cccc3Cl)ccc12,·,54,·,-0.1
Cc1nn2c(-c3cccc(NC(=O)CN4CCOCC4)c3)nnc2c2ccccc12,·,-30,·,0.5
C[C@H](CO)N1C[C@H](C)[C@@H](CN(C)Cc2ccc(-c3ccccc3)cc2)Oc2c(NC(=O)c3ccc(-c4nccs4)cc3)cccc2C1=O,-0.12,21,40,-3.5
C[C@H]1CN([C@@H](C)CO)C(=O)Cc2cc(NC(=O)NC3CCCCC3)ccc2O[C@H]1CN(C)C(=O)Nc1ccc2c(c1)OCO2,-0.26,-12,·,0.4
C[C@H]1CN([C@@H](C)CO)C(=O)c2cccc(NS(=O)(=O)c3ccccc3)c2O[C@H]1CN(C)Cc1ccc(-c2ccccc2)cc1,-0.29,-6,25,-3.9
CC(C)Cc1ccc(/C=C/C(=O)N2CCN(C/C=C/c3ccccc3)CC2)cc1,-0.12,2,7,1.2
Cc1ccc(NC(=O)Cn2cc(C(=O)c3cccs3)c3ccccc32)cc1Cl,·,30,·,0.4
O=C1c2ccccc2C(=O)C1C1c2ccccc2Oc2ccccc21,-0.064,-3,-18,1.0
C[C@@H]1CN([C@@H](C)CO)C(=O)Cc2cc(NC(=O)Nc3ccc(C(F)(F)F)cc3)ccc2O[C@@H]1CN(C)Cc1ccc(-c2ccccc2)cc1,0.13,10,10,-0.8
COc1ccc(NC(=O)N(C)C[C@@H]2Oc3ccc(NC(=O)Nc4ccc(C(F)(F)F)cc4)cc3CC(=O)N([C@@H](C)CO)C[C@@H]2C)cc1,-0.0088,-16,-26,·
C[C@@H]1CCCCO[C@@H](CN(C)Cc2ccc(C(F)(F)F)cc2)[C@@H](C)CN([C@H](C)CO)C(=O)c2cc(NS(=O)(=O)c3ccccc3)ccc2O1,0.39,5,·,-1.8
CC1(C)c2ccccc2N2CC(=O)NC21/C=C/c1ccc(N2CCOCC2)cc1 (stereo unspecified),-0.54,-5,-24,-2.9
CC1(C)ONC(=O)N(c2ccccc2)C1=O,-0.52,-14,-11,0.2
C[C@H]1CN([C@@H](C)CO)C(=O)c2cccc(NC(=O)C3CCCCC3)c2O[C@H]1CN(C)Cc1ccc2c(c1)OCO2,-0.16,2,5,-0.3
C[C@H]1CN([C@@H](C)CO)C(=O)c2cc(NC(=O)CCC(F)(F)F)ccc2O[C@@H]1CN(C)C(=O)Nc1ccccc1,1.2,-1,·,-1.1
C[C@@H]1CN([C@H](C)CO)C(=O)c2cc(NC(=O)Nc3ccc4c(c3)OCO4)ccc2O[C@@H]1CN(C)Cc1ccncc1,-0.21,2,-18,·
COc1ccc(S(=O)(=O)N(C)C[C@H]2Oc3ccc(NC(=O)Nc4ccc5c(c4)OCO5)cc3CC(=O)N([C@@H](C)CO)C[C@H]2C)cc1,-0.015,15,10,-2.4
Cn1c(SCc2ccccc2C#N)nnc1-c1ccc(NC(=O)c2ccc(F)cc2)cc1,·,-17,·,0.0
Cc1noc(C)c1NC(=O)Nc1ccc2c(c1)C(=O)N([C@@H](C)CO)C[C@@H](C)[C@@H](CN(C)S(=O)(=O)c1ccc(Cl)cc1)O2,-0.26,-2,1,-0.4

# Not all compounds are listed, so the mix of outcomes need not match the whole.
